PrP 5UTR inh: inhibition of PrP 5' UTR reporter expression; inhibition, % (concentration not given with the values); hit rate 0.35% among 340,000; cell-based PrP 5' UTR mRNA reporter, plate reader;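 active means every replicate at 50% or more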;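 further: 0 = median of the neutral control wells; tested in H4 reporter cells; numbers are from one replicate; inactives centre near -14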
Bead autofluor: flagged as autofluorescent in microsphere protease counterscreen; compound autofluorescence counterscreen, microsphere flow cytometry; stronger effect = higher value; fluorescence intensity (test concentration not listed); hit rate 3.1% among 360,000; AID 624483;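 active means at least 3 SD above the mean of all compounds, about 16000 in these data; inconclusive means too few beads counted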;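 further: 100 nL of 1 mM stock went into each well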
Active calls of the source: *; ? = inconclusive.

SMILES	PrP 5UTR inh	Bead autofluor
COC(=O)C1=C(c2ccccc2OCc2ccccc2)C[C@@H]2CC[C@H]1N2C(=O)NCc1ccc(F)cc1	-17	3999
CN1Cc2ccccc2-n2nncc2C1	-8	4118
CC(C)Nc1nnc(SC(C)C(=O)Nc2ccc(N3CCOCC3)cc2)s1 (configuration not stated)	-6	3108
N#CC(=C1C=CC(=NO)C(Cl)=C1)c1ccc(Cl)cc1	-22	3599
C=C(C)COc1ccc2c(c1)CCC1C2CCC2(C)C(=O)C(=NO)CC12 (configuration not stated)	-2	3007
COC(=O)c1ccc2nc3c(cc2c1)[C@@H]1CCN2C(=O)CCC[C@H](C3)[C@H]12	-15	3594
CC(C)(C)C1CCC(CN2C(Nc3ccccc3)=NC[C@@H]2Cc2ccccc2)CC1 (some centres not stated)	-19	3818
CCCCN1C(=N)N([C@@H](C)CN2CCC[C@H]2CN2C(N)=NC[C@@H]2Cc2ccccc2)C[C@H]1[C@H](C)CC	-19	4475
CCOC(=O)C1CC2=C(CC(C)(C)CC2=O)N(CCOC)C1=O (configuration not stated)	-28	3716
Cc1ccc(-c2nc3ncccc3o2)cc1NC(=O)c1ccc2c(c1)OCO2	-8	3949
O=C(c1cccc(Cl)c1)N1CCC2CC1c1cc(-c3ccccc3)ccc12 (configuration not stated)	-6	3978
CCC(C)Nc1ccc(NC(C)CC)cc1 (configuration not stated)	-10	4636
NC(=O)c1ncn([C@@H]2O[C@H](CNS(=O)(=O)c3cc4ccccc4s3)[C@@H](O)[C@H]2O)n1	-10	3949
Cc1ccccc1CN1CCN(C(=O)c2ccc(S(=O)(=O)NCc3ccco3)cc2)CC1	-17	4031
CCN(CC)c1ccc(/C=N/N2CC(=O)NC2=S)cc1	-21	3726
Cc1ccc2c(c1)[C@H]1[C@H](CO2)[C@H](c2ccccc2)[C@]2(C)C(=O)NCC(=O)N12	-17	4133
C=C(Br)CN1[C@@H](Cc2ccccc2)[C@H](O)[C@@]23C=C[C@@H](C[C@@H]2S1(=O)=O)O3	-16	4157
CC(C)(C)OC(=O)C[C@@H]1C/C=C\C[C@@H](CC(=O)N[C@@H](CO)Cc2ccccc2)C(=O)N2CCC[C@@H]2COC1=O	-6	4394
CCCN(C(=O)COC(=O)c1nc2nccc(C)n2n1)C1CCS(=O)(=O)C1 (configuration not stated)	-5	3575
c1ccc(-c2sc3ccccc3c2-c2ccc(OCCN3CCOCC3)cc2)cc1	-11	4157
Cc1ccccc1N=C1C(=O)Nc2ccccc21	-47	3963
F[B-](F)(F)c1cc2ccccc2s1	-16	3557
CC(C)NC(=O)N(C)C[C@H]1Oc2c(cccc2N(C)C)C(=O)N([C@H](C)CO)C[C@@H]1C	-12	4227
Oc1ccccc1-c1n[nH]c(-c2ccccc2O)n1	69*	4299
C[C@@H]1CN([C@H](C)CO)C(=O)Cc2cc(NC(=O)CCC(F)(F)F)ccc2O[C@@H]1CN(C)C(=O)NC1CCCCC1	-10	3908
SMILES	PrP 5UTR inh	Bead autofluor
Cc1ccsc1/C=N/NC(=O)CNC(=O)c1ccco1	-35	4459
COc1ccc(NC(=O)N(C)C[C@H]2Oc3c(NS(=O)(=O)c4ccc(F)cc4)cccc3C(=O)N([C@H](C)CO)C[C@@H]2C)cc1	-19	4093
COc1ccc([C@H]2CC(=O)C=C(c3cccc(OC)c3OC)C2)cc1OC	-14	3501
CC(C)C[C@@H](CN)NC(=O)c1nc[nH]c1C(=O)N[C@@H](C)C(=O)CNC[C@H](C)NC(=O)c1nc[nH]c1C(=O)N[C@@H](C)C(=O)O	-7	3849
N#CC1(NC(=O)COC(=O)C2CCN(S(=O)(=O)c3ccc4c(c3)OCCO4)CC2)CCCCC1	-15	2920
COc1ccc(S(=O)(=O)N2CCN(CC(O)CN3CCOCC3)CC2)cc1 (configuration not stated)	-12	2961
COc1ccc(S(=O)(=O)Nc2ccc3c(c2)C(=O)N([C@H](C)CO)C[C@H](C)[C@@H](CN(C)C(=O)Nc2c(C)noc2C)O3)cc1	-18	4225
C=CC[C@@H](CC(=O)N(CCO)Cc1ccccc1)C(=O)N[C@H](COC(=O)[C@@H](CC=C)CC(=O)OC(C)(C)C)C(C)(C)C	-8	3858
COc1ccc([N+](=O)[O-])cc1/C=N/NC(=O)c1nonc1N	-10	4482
C#CCOCCOCCOCCNc1nc(N2CCN(C(=O)CCCCCCCCCCNC(=O)[C@H](CO)n3cc(CCCSC)nn3)CC2)nc(N2CCN(C(=O)CCCCCCCCCCNC(=O)[C@H](CCCN=C(N)N)n3cc(C[C@@H](C)CC)nn3)CC2)n1	-13	4835
CC12CCC3(CC1CCC1OC12)OCCO3 (configuration not stated)	-17	3874
O=C(CC(c1ccccc1)C1CCCCC1=O)c1ccccc1 (configuration not stated)	-16	3743
COc1ccc(C(=O)N/N=C/c2ccc(N3CCOCC3)s2)cc1OC	-21	7884
C[C@@]12C(=O)Nc3cc(Cl)ccc3C(=O)N1[C@H]1c3cc(Br)ccc3OC[C@@H]1[C@@H]2c1ccccc1	-25	3350
CC(=O)NC1=CC(=C[N+](=O)[O-])C=C1O	-9	2973
Cc1noc(C)c1NC(=O)Nc1cccc2c1O[C@H](CN(C)S(=O)(=O)c1cn(C)cn1)[C@@H](C)CN([C@H](C)CO)C2=O	-19	2924
CCCCN1C(Nc2ccccc2)=NC[C@@H]1Cc1ccccc1	-21	3611
OCC[C@H]1C[C@@H](O)[C@H](O)[C@@]2(CCc3ccccc3CO2)O1	-8	3649
O=C(NCc1ccco1)c1ccc(C(=O)NCc2ccco2)cc1	-16	2947
O=C(O)COc1ccc(/C=N/n2cnc3scc(-c4cccs4)c3c2=O)cc1	-8	2576
CC[C@@H]1Cc2cc(O)ccc2C2=C1c1ccc(O)cc1C[C@H]2CC	-25	5332
C[C@H](CO)N1C[C@H](C)[C@H](CN(C)Cc2ccc(-c3ccccc3)cc2)Oc2ccc(NS(=O)(=O)c3ccccc3)cc2CC1=O	-22	3470
O=c1[nH]cnc2c1ncn2C1OCC(O)C(O)C1O (configuration not stated)	-7	4356
Cc1ncnc(N)c1CCCNc1ccccc1	-13	3490
O=C(C[C@H]1C/C=C\C[C@H](Cc2ccc(F)cc2)C(=O)OCCNC1=O)NCCO	-24	3431

Continued, overlapping the part above by 5 compounds.
SMILES	PrP 5UTR inh	Bead autofluor
CC[C@@H]1Cc2cc(O)ccc2C2=C1c1ccc(O)cc1C[C@H]2CC	-25	5332
C[C@H](CO)N1C[C@H](C)[C@H](CN(C)Cc2ccc(-c3ccccc3)cc2)Oc2ccc(NS(=O)(=O)c3ccccc3)cc2CC1=O	-22	3470
O=c1[nH]cnc2c1ncn2C1OCC(O)C(O)C1O (configuration not stated)	-7	4356
Cc1ncnc(N)c1CCCNc1ccccc1	-13	3490
O=C(C[C@H]1C/C=C\C[C@H](Cc2ccc(F)cc2)C(=O)OCCNC1=O)NCCO	-24	3431
C#CCOCCOCCOCCNc1nc(N2CCN(C(=O)[C@H](CCCCN)n3cc(CCCC)nn3)CC2)nc(N2CCN(C(=O)[C@H](CCCCN)n3cc(CCC(=O)O)nn3)CC2)n1	-12	4009
CC12CCC(O)CC1CCC1C2CCC2(C)C(C3=CC(=O)OC3)CCC12O (configuration not stated)	79*	3837
CCCC(=O)c1ccc(OCc2cn(CC(=O)c3ccc(O)cc3)nn2)cc1	-14	3622
CC12CCCCC1C(C(N)=O)C(=O)O2 (configuration not stated)	-17	3127
O=C(C[C@H]1C/C=C\CC[C@@H](Cc2ccc(F)cc2)C(=O)O[C@@H](c2ccccc2)CNC1=O)N[C@@H](CO)Cc1ccccc1	-30	3916
CCC(=O)OCC(=O)C1(OC(=O)CC)[C@H](C)C[C@H]2[C@H]3[C@H]([C@@H](O)C[C@@]21C)[C@@]1(C)C=CC(=O)C=C1C[C@H]3Cl (some centres not stated)	1	4353
CC(C)C[C@@H](CO)NS(=O)(=O)c1cc(Cl)ccc1F	-2	3910
O=C1N[C@H](Cc2ccccc2)COC(=O)[C@H](Cc2ccc(F)cc2)C/C=C\C[C@H]1CC(=O)N(CCO)Cc1ccccc1	-9	3039
COc1ccc(-c2ccc(-c3cc(=O)oc4cc(OC)c(OC)c(OC)c34)cc2)cc1	4	2891
O=C(NN=Cc1ccccc1O)C(O)(c1ccccc1)c1ccccc1	-2	3578
COc1ccccc1/C=c1\sc2nc(-c3ccccc3OC)nn2c1=O	-25	?
COc1ccc(C(=O)Oc2ccc(/C=N/NC(=O)c3cccnc3)cc2OC)cc1	-19	6269
COC(=O)[C@]1(C)N[C@H](CN(C)S(=O)(=O)c2ccc(OC(F)(F)F)cc2)[C@@H]2C(=O)N(C)C(=O)[C@@H]21	-17	3680
O=C1N[C@@H](Cc2c[nH]c3ccccc23)C(=O)N[C@H]1Cc1ccccc1	0	2911
Cc1noc(C)c1S(=O)(=O)Nc1ccc2c(c1)CC(=O)N([C@H](C)CO)C[C@H](C)[C@H](CN(C)S(=O)(=O)c1ccc(F)cc1)O2	-59	4002
CCN1C(=O)[C@@H]2[C@H](C1=O)[C@@H]1C(=O)Nc3ccccc3C(=O)N1[C@@H]2c1cccc(C)c1	-15	3455
COc1ccc(-c2cc(=O)c3ccc(O)cc3o2)cc1	-59	4018
COc1ccc(-c2cc(=O)c3c(C)cc(O)cc3o2)cc1	-140	2824
Cc1nc2c(O)c3c(c(O)c2nc1C)C1C=CC3CC1	-28	4326
CCCCN1CC(=O)N2[C@H]3c4ccccc4OC[C@@H]3[C@H](C(=O)OCC)[C@]2(C)C1=O	-8	3808
COc1ccc([C@H]2CC(=O)C=C(c3cccc4c3sc3ccccc34)C2)cc1OC	-11	3894
O=[N+]([O-])c1ccc(O)c(CNCc2ccccc2)c1	-28	4255
CC(=O)C1(C)C(=O)N(c2ccc(F)cc2)C(=O)N1c1ccc(F)cc1 (configuration not stated)	-1	3725
O=C(/C=C/c1ccc([N+](=O)[O-])cc1)c1ccccc(=O)c1O	5	3727
O=c1c(/C=N/Nc2ccccc2)c(Sc2nnnn2-c2ccccc2)nc2ccccn12	-35	5653

The last five entries of the part above open the next one.
SMILES	PrP 5UTR inh	Bead autofluor
COc1ccc([C@H]2CC(=O)C=C(c3cccc4c3sc3ccccc34)C2)cc1OC	-11	3894
O=[N+]([O-])c1ccc(O)c(CNCc2ccccc2)c1	-28	4255
CC(=O)C1(C)C(=O)N(c2ccc(F)cc2)C(=O)N1c1ccc(F)cc1 (configuration not stated)	-1	3725
O=C(/C=C/c1ccc([N+](=O)[O-])cc1)c1ccccc(=O)c1O	5	3727
O=c1c(/C=N/Nc2ccccc2)c(Sc2nnnn2-c2ccccc2)nc2ccccn12	-35	5653
C=CCCC(=O)N1C[C@H]2CON(C)[C@H]2C[C@H]1c1cccc(Nc2ccccc2)c1	-18	3619
C[C@H](CO)N1C[C@H](C)[C@@H](CN(C)C(=O)NC2CCCCC2)Oc2ccc(NC(=O)c3ccncc3)cc2C1=O	-22	3598
CN1C[C@@H]2[C@@H]3C(=O)N(C)C(=O)[C@@H]3[C@](C)(C1=O)N2C(=O)c1ccc(C(F)(F)F)cc1	-27	3898
CCOC(=O)c1c(C)c(/C=N/Nc2ccccc2)n(C)c1C	-52	3903
CCN(c1ccccc1)S(=O)(=O)c1ccc(OCC(F)(F)F)c(NC(=O)c2ccc(=O)[nH]c2)c1	10	4595
CN=c1sc2c(n1C)C(=O)c1ccccc1C2=O	-33	3446
Cc1cc(CCNC=O)c(C)c2c1sc1ccccc12	-7	3361
Nc1nc(N)nc(-c2cc(O)ccc2O)n1	6	3851
Cc1ccc(C)c(NC(=O)CC2Sc3ccccc3NC2=O)c1 (configuration not stated)	-17	2917
CC(=O)Nc1ccc2c(c1)-c1ccc(F)cc1C2	-23	4269
O=[N+]([O-])c1ccc(/C=N/NS(=O)(=O)c2ccc(Cl)cc2)o1	-2	8086
COc1cccc(CN(C)C(=O)c2ccc(Cl)c(S(=O)(=O)N3CCCCCC3)c2)c1OC	8	2781
C[C@@H]1COC(=O)[C@@H](Cc2ccc(F)cc2)C/C=C\C[C@@H](CC(=O)N(CCO)Cc2ccccc2)C(=O)N1	-26	3993
CC(=O)NC(CCC(=O)O)C(=O)O (configuration not stated)	-10	5847
Cc1ccccc1-c1cccc([C@@H]2C[C@H]3[C@H](CON3C)CN2C(=O)C(C)(C)C)c1	2	3750
COc1ccc(S(=O)(=O)Nc2cccc(S(=O)(=O)N(C)C)c2)cc1[N+](=O)[O-]	-10	5011
COc1ccc(C=C2C(=O)NC(=S)NC2=O)cc1	-18	3302
C[C@H](CO)N1C[C@H](C)[C@@H](CN(C)S(=O)(=O)c2ccccc2)Oc2c(NS(=O)(=O)c3ccc(F)cc3)cccc2C1=O	-26	3668
COC(=O)C1=C(c2c(C)noc2C)C[C@@H]2CC[C@H]1N2C(=O)NCCNC(C)=O	-8	3704
C[C@H](CO)N1C[C@H](C)[C@@H](CN(C)CC2CCCCC2)Oc2ccc(NC(=O)Cn3cnnn3)cc2C1=O	-9	4176
Cc1ccc2c(c1)C(=O)N1[C@H]3c4cc(Br)ccc4OC[C@@H]3[C@H](c3ccccc3)[C@]1(C)C(=O)N2	-31	3810
O=C(O)c1ccc(C=NN=C2c3ccccc3-c3ccccc32)cc1	-18	3867
CN(C)c1ccc(/C=C/C(=O)c2ccc(O)cc2)cc1	-149	5149
COc1ccc([C@H]2CC(=O)C=C(c3ccc(-c4ccccc4)c(F)c3)C2)cc1OC	-13	3596
CC[C@]12C(=O)N(C)C[C@H]([C@@H]3C(=O)N(C)C(=O)[C@@H]31)N2C(=O)c1ccc(C(F)(F)F)cc1	-20	3670
COc1cc([C@@H]2OC[C@@H]3[C@H]2CO[C@@H]3c2ccc3c(c2)OCO3)ccc1O	-18	2939

Compound activity (PubChem BioAssay)

Not all compounds are listed; count on the stated rates, not on these rows.
